Screening data from PubChem.
Hedgehog – Drosophila hedgehog isoform A inhibitors, primary screen, biochemical, plate reader, single concentration (AID 588832); inhibition, % at 30.3 µM; 8,000 tested, under 10 active; Biochemical plate reader assay, Hedgehog inhibition; hits give high values; in the data active = inhibition from about 57%;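 note: 0% = neutral control wells and 100% = positive control wells; cholesterol-driven self-cleavage of fly hedgehog protein by fluorescence polarization; read one hour after cholesterol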
Starred values were filed as active, the others as inactive. The list is partial, so the mix of outcomes need not match the whole.

Hedgehog	SMILES
2	CCOc1ccc(NC(=O)CSc2nc3ccccc3nc2N2CCCC2)cc1
3	C#CCn1c(=NC(=O)CN2C(=O)CCC2=O)sc2cccc(C)c21
5	Cc1c(Cc2ccccc2)c(=O)oc2cc(OCC(=O)NCC3CCC(C(=O)O)CC3)ccc12 (stereo unspecified)
2	Cc1ccc(S(=O)(=O)N[C@H](C(=O)N2CCC(C(=O)N[C@@H](CC(=O)O)C(=O)O)CC2)C(C)C)cc1
-4	CCc1nnc(NC(=O)CSc2ncnc3c2oc2ccccc23)s1
4	COc1ccc(N2CCN(C(=O)CCC(=O)N3CCOc4ccc(C)cc43)CC2)cc1
0	O=C(N/N=C/c1ccco1)c1cccc(N2Cc3ccccc3C2)c1
5	CCOc1ccc(CCNC(=O)CCC(=O)N2CCOc3ccc(C)cc32)cc1OCC
-2	Cn1c(SCC(=O)Nc2cccc(F)c2)nnc1-c1cccnc1
12	COc1ccc(C2=NS(=O)(=O)N(C)C(C(=O)NCc3ccccn3)=C2)cc1OC

3 compounds drawn at random from those above, as already listed:
Hedgehog	SMILES
0	O=C(N/N=C/c1ccco1)c1cccc(N2Cc3ccccc3C2)c1
2	CCOc1ccc(NC(=O)CSc2nc3ccccc3nc2N2CCCC2)cc1
-2	Cn1c(SCC(=O)Nc2cccc(F)c2)nnc1-c1cccnc1

(list continues)
Hedgehog	SMILES
2	CCn1c(SCC(=O)Nc2nnc(C)s2)nc2c(c1=O)SC(C)C2 (stereo unspecified)
-2	CC(=O)Nc1ccc(S(=O)(=O)N2CCN(c3cccc(C)c3C)CC2)cc1
2	NC(=O)C1CCN(C(=O)c2cc3n(n2)C(C(F)(F)F)CC(c2ccco2)N3)CC1 (stereo unspecified)
2	CCN1CCN(C(CNS(=O)(=O)c2ccc(OC)cc2)c2cccnc2)CC1 (stereo unspecified)
3	OCc1ccccc1O[C@@H]1O[C@H](CO)[C@@H](O)[C@H](O)[C@H]1O
7	CCN1CCSc2ccc(C(=O)NCc3cc(Br)ccc3OC)cc21
4	CCN(CC)CCNC(=O)c1cc2c(=O)n(C)c3ccccc3c2n1C
6	COCCN1Cc2cccc(C(=O)NCc3cccnc3)c2C1=O
5	COc1cccc(OC)c1C(=O)NC(=S)N1CCCCC1c1cccnc1 (stereo unspecified)
9	CCOc1ccccc1C1CC(c2ccc(Cl)cc2)Nc2nc(N)nn21 (stereo unspecified)

Part of the list above, with tabs:
compound	Hedgehog
CCN1CCSc2ccc(C(=O)NCc3cc(Br)ccc3OC)cc21	7
COc1cccc(OC)c1C(=O)NC(=S)N1CCCCC1c1cccnc1 (stereo unspecified)	5
NC(=O)C1CCN(C(=O)c2cc3n(n2)C(C(F)(F)F)CC(c2ccco2)N3)CC1 (stereo unspecified)	2
CCN1CCN(C(CNS(=O)(=O)c2ccc(OC)cc2)c2cccnc2)CC1 (stereo unspecified)	2

(cont.)
Hedgehog	SMILES
7	Cn1c(=O)cc(OCC(=O)N2CCC(N3CCCCC3)CC2)c2ccccc21
0	Cc1ccccc1-c1nnc(NC(=O)CSc2nc3ccccc3s2)s1
0	O=C(c1ccc(CSc2nc3ccncc3[nH]2)cc1)N1CCN(c2cccc(Cl)c2)CC1
5	Cc1cccc(C)c1NC(=O)c1cc(S(=O)(=O)N2CCOCC2)cn1C
10	COC(=O)Cn1c(=NC(=O)C(C)(C)C)sc2c(C)cc(C)cc21
12	COc1ccc(C2=NS(=O)(=O)N(C)C(C(=O)Nc3ccc(C)cc3)=C2)cc1
2	Cc1cc(=O)n2nc(N3CCCC3C(=O)Nc3ccc(C(C)C)cc3)sc2n1 (stereo unspecified)
5	COc1cc(OC)c(OC)cc1C#N
20	Cc1cc(N2CCN(C(=O)c3ccco3)CC2)n2nc(C)nc2n1
3	C[C@H](CCC(=O)O)[C@H]1CC[C@H]2[C@@H]3CC[C@@H]4C[C@H](O)CC[C@]4(C)[C@H]3C[C@H](O)[C@]12C

Remaining list, next part
Hedgehog	SMILES
15	COCCOC(=O)c1[nH]c2c(c1C)C(=O)CC(c1ccc(F)cc1)C2 (stereo unspecified)
15	COc1ccccc1NC(=O)C1=C(C)Nc2nc(-c3cccs3)nn2C1c1cccnc1 (stereo unspecified)
2	Cc1cccc(CCNC(=O)CCS(=O)(=O)c2cc3c(cc2C)NC(=O)CO3)c1
6	CC(=O)Nc1ccc(S(=O)(=O)N2CCN(CCC#N)CC2)cc1
11	CCS(=O)(=O)NCC(c1cccnc1)N1CCN(c2ccccc2OC)CC1 (stereo unspecified)
2	Cc1oc2cc3oc(=O)c(CCC(=O)NCCCN4CCOCC4)c(C)c3cc2c1C
15	CC1CN(C(=O)CCC(=O)NC2CCCCC2)c2ccccc2S1 (stereo unspecified)
-1	CCN(c1ccc(OC)cc1)S(=O)(=O)N1CCCC(C(=O)NCc2cccc(C)c2)C1 (stereo unspecified)
11	Cn1c2c(c(=O)n(C)c1=O)C1c3ccccc3OCC1C(C)(C)O2 (stereo unspecified)
5	Cc1c(CC(=O)N2CCC(C(N)=O)CC2)c(=O)oc2cc3c(cc12)CCC1(CCCCC1)O3

Further structures.
Hedgehog	SMILES
-4	Cc1ccc2c(c1)N(C(=O)CCC(=O)NCCCN1CCN(C)CC1)CC(C)O2 (stereo unspecified)
-2	CCN(CC)CCCNC(=O)c1cc2c(=O)n(C)c3ccccc3c2n1C
5	CC(C)c1ccc(NC(=O)CSc2nc3ccccc3nc2N2CCCC2)cc1
4	CCOC(=O)c1[nH]c(C)c(C(=O)NCc2ccc(C)cc2)c1C
6	COc1ccc(N2C(=O)C3CCCN3C2c2cccc(OC)c2)cc1 (stereo unspecified)
11	CCC(C)N(CCNC(=O)CC1Oc2ccc(C)cc2NC1=O)C1CCCCC1 (stereo unspecified)
5	COC(=O)c1c(C)cc(O)cc1O
-1	O=C(c1cc(-c2cccc(O)c2)on1)N1CCOCC1
3	Cc1c(CCC(=O)N2CCC[C@H]2C(=O)O)c(=O)oc2c(C)c3oc4c(c3cc12)CCCC4
10	C=C1CCC2[C@](C)(CO)[C@H](O)CC[C@@]2(C)[C@@H]1/C=C/C1=CCOC1=O (stereo partly specified)

Next compounds:
Hedgehog	SMILES
4	Cn1c(Cn2c(=O)sc3ccccc32)nnc1SCC(=O)Nc1ccccc1
8	COc1ccc(-c2nnc(C3CCN(S(=O)(=O)c4ccccc4)CC3)o2)cc1
12	O=c1cc(-c2ccccc2)oc2cc(O)c(O)c(O)c12
9	COc1ccc(-c2nc(CS(=O)CC(=O)N3CCc4ccccc4C3)c(C)o2)cc1 (stereo unspecified)
11	COc1cccc(-n2nnc3c(=O)n(CC(=O)NCC4CCCO4)cnc32)c1 (stereo unspecified)
11	CCC(C)[C@H](NC(=O)N1CC(=O)Nc2ccccc21)C(=O)N1CCC[C@@H]1C(=O)O (stereo partly specified)
12	O=C(Nc1ccc(Br)cc1F)C1CCN(c2nnc(-n3cccc3)s2)CC1
0	CCCCNc1nc2c(S(=O)(=O)c3ccccc3)nnn2c2ccccc12
10	CC(C)CCSc1nc2c(c(=O)[nH]c(=O)n2C)n1CCCc1ccccc1
10	Cn1c(=O)c2c(nc(SCCN3CCOCC3)n2Cc2ccccc2Cl)n(C)c1=O

(listing goes on)
Hedgehog	SMILES
10	Cc1c2cn[nH]c(=O)c2c(C)n1Cc1ccc(F)cc1
-7	Cc1oc2cc3oc(=O)c(CC(=O)N[C@H](C(=O)N[C@@H](C(=O)O)c4ccccc4)C(C)C)c(C)c3cc2c1C
4	COc1ccc(-c2cn3c(C)c(C(=O)N4CCN(c5ccc(F)cc5)CC4)sc3n2)cc1
12	Cc1c(C(=O)OC2CCC(C)CC2)[nH]c2c1C(=O)CCC2 (stereo unspecified)
4	O=C(Cn1cc2c(n1)CCCC2)NCCCN1CCN(Cc2ccccc2)CC1
7	CC(=O)Nc1ccc(N)cc1
9	COc1ccc(-n2c3c(cc(C(=O)N4CCC(C)CC4)c2=O)C(=O)CC(C)(C)C3)cc1
5	Cc1c(O)cc2c(c1O)C(=O)CC(c1ccc(O)cc1)O2 (stereo unspecified)
2	CCCn1c(CN2CCN(C(=O)c3ccco3)CC2)nc2c1c(=O)n(C)c(=O)n2C
7	C[C@@H](NC(=O)[C@@H]1Cc2ccccc2CN1)C(=O)Nc1ccc2c(c1)OCO2

The final 3 compounds of the section above lead into the next.
Hedgehog	SMILES
5	Cc1c(O)cc2c(c1O)C(=O)CC(c1ccc(O)cc1)O2 (stereo unspecified)
2	CCCn1c(CN2CCN(C(=O)c3ccco3)CC2)nc2c1c(=O)n(C)c(=O)n2C
7	C[C@@H](NC(=O)[C@@H]1Cc2ccccc2CN1)C(=O)Nc1ccc2c(c1)OCO2
17	O=C1CCCN1CCC12CC3CC(CC(C3)C1)C2
2	O=C(CCc1ccccc1)N1CCN(CCO)CC1
12	CC(NC(=O)NC1CCCCC1)C(c1cccs1)N1CCN(c2ccccc2)CC1 (stereo unspecified)
5	CCOC(=O)C1CCN(C(=O)c2cccc(NC3=NC4CS(=O)(=O)CC4S3)c2)CC1 (stereo unspecified)
5	Cc1ccn2cc(CCNC(=O)c3ccc(Br)o3)nc2c1
-4	Cc1c(CCC(=O)NCCCn2ccnc2)c(=O)oc2cc3oc4c(c3cc12)CCCC4
4	Cc1ccc2c(c1)N(C(=O)CCC(=O)NCc1cccnc1)CC(C)O2 (stereo unspecified)
4	CCCCC(CC)CNC(=O)c1[nH]c(C)c(C(C)=O)c1C (stereo unspecified)
17	CC(=O)Nc1sc2c(c1C(c1cccc(Cl)c1)N1CCN(CCO)CC1)CCCC2 (stereo unspecified)
4	CCC1CCCCN1CCNS(=O)(=O)c1ccc2c(c1)oc(=O)n2C (stereo unspecified)

The list goes on.
Hedgehog	SMILES
0	COc1cc2ccccc2cc1-c1nnc(COc2ccccc2)o1
8	CCCc1cc(C(=O)Nc2ccc(C)cc2)no1
2	COc1ccc(C2=NS(=O)(=O)N(C)C(C(=O)N3CCN(C)CC3)=C2)cc1
7	Cc1oc2c(C)c3oc(=O)c(CCC(=O)N4C[C@H]5C[C@@H](C4)c4cccc(=O)n4C5)c(C)c3cc2c1C
9	COc1ccc(-c2cn3c(C)c(C(=O)N4CCCc5ccccc54)sc3n2)cc1
7	CC(C)[C@H](NC(=O)N1CCn2c1nc1ccccc12)C(=O)N[C@@H](C(=O)O)c1ccccc1
4	Cc1cc2c(cc1S(=O)(=O)N1CC(C)CC(C)C1)OCC(=O)N2 (stereo unspecified)
2	Cc1ccc2oc(=O)c3cnn(CC(=O)NCCCOC(C)C)c3c2c1
9	Cn1c(=O)oc2cc(S(=O)(=O)NCc3ccccn3)ccc21
15	Cc1c(C(=O)NCc2ccc3c(c2)cc(C)n3C)cccc1[N+](=O)[O-]

New compounds follow:
Hedgehog	SMILES
8	O=c1cc(N2CCc3ccccc3C2)[nH]c(=O)n1-c1ccccc1Cl
7	Cc1cc(NC(=O)CSc2cn(CCNC(=O)c3ccccc3)c3ccccc23)no1
15	CCn1c(CNC(=O)C23CC4CC(CC(C4)C2)C3)nnc1SCC(=O)Nc1nnc(C)s1
5	CCCCCSc1nnc2c(n1)OC(C)N(C(C)=O)c1ccccc1-2 (stereo unspecified)
7	CC(=O)OC1CC2C(C)(C)C(=O)C=CC2(C)C2CCC3(C)C(c4ccoc4)OC(=O)C4OC43C12C (stereo unspecified)
15	CC(=O)N1CCc2cc(C(=O)CN3CCCCC3)ccc21
12	O=C(CCc1nnc2n(Cc3ccccc3)c(=O)c3ccccc3n12)NCCN1CCOCC1
17	CCc1nn(CC(=O)NCCCN2CCCC2=O)c(=O)c2cc3sccc3n12
12	Cc1c(Cl)cccc1NC(=O)c1cc(S(=O)(=O)N2CCOCC2)cn1C
2	COc1ccc2ccc(=O)oc2c1CC(=O)C(C)C

Reprinted from the part before: 4 compounds, followed by the next part.
Hedgehog	SMILES
12	O=C(CCc1nnc2n(Cc3ccccc3)c(=O)c3ccccc3n12)NCCN1CCOCC1
17	CCc1nn(CC(=O)NCCCN2CCCC2=O)c(=O)c2cc3sccc3n12
12	Cc1c(Cl)cccc1NC(=O)c1cc(S(=O)(=O)N2CCOCC2)cn1C
2	COc1ccc2ccc(=O)oc2c1CC(=O)C(C)C
25	COc1cc(OC)c(NS(=O)(=O)c2coc(C(N)=O)c2)cc1Cl
8	Cc1cc(NC(=O)c2cc(-c3cccs3)nc3ccccc23)no1
4	Cc1cccc(NC(=O)NCCN2C(=O)C3C4C=CC(C4)C3C2=O)c1 (stereo unspecified)
7	Cc1cc(OCC(=O)N(C)C)c2c(-c3ccccc3)cc(=O)oc2c1
2	COc1ccc(CNC(=O)CCS(=O)(=O)c2ccc3nc(C)sc3c2)cc1
8	COc1ccc(NC(=O)CN2C(=O)CC(C)(C)S(=O)(=O)c3ccccc32)cc1
7	COc1ccc(C2CC(c3ccco3)n3ncnc3N2)cc1 (stereo unspecified)
10	COc1ccc(C)c2sc(NC(=O)C3CC3)nc12
5	Cc1oc(-c2cccs2)nc1CS(=O)CC(=O)NCCCN1CC(C)CC(C)C1 (stereo unspecified)
2	CCc1cc(=O)oc2cc(C)cc(OCC(=O)N3CCC[C@@H]3C(=O)O)c12

Further compounds follow.
Hedgehog	SMILES
11	O=C1c2ccccc2C(=O)N1CCN1CCOCC1
3	CCn1c(SCc2cccnc2)nnc1-c1c[nH]c2ccccc12
4	Cn1c(=O)oc2cc(S(=O)(=O)N3CCN(c4ccccn4)CC3)ccc21
4	COc1ccc(N(CC(=O)N2CCCCC2)S(=O)(=O)c2c(C)nn(C)c2C)cc1
7	Cc1ccc(CNC(=O)CCCn2nc(C)n3ccnc3c2=O)cc1
12	O=S(=O)(c1ccc(F)cc1)N1CCn2c(nc3ccccc32)C1
17	COc1ccc(-c2nc(CSCC(=O)N3CCN(C)CC3)c(C)o2)cc1OC
8	COc1ccc(OC)c(C2CC(=O)c3c([nH]c(C(=O)OCC4CCCO4)c3C)C2)c1 (stereo unspecified)
5	Cc1cccc(N2CCN(C(=O)CCC(=O)N3CCOc4ccc(Cl)cc43)CC2C)c1 (stereo unspecified)
10	CC1(C)CC(=O)N(CC(=O)NCc2ccc(F)cc2)c2ccccc2S1(=O)=O
7	Cc1cccc(NC(=O)CSc2nc3ccccc3nc2N2CCCC2)c1
13	COc1ccc(C2OC(=O)CC2C(=O)N2CCN(c3cc(Cl)ccc3C)CC2)cc1OC (stereo unspecified)
